Screens: PubChem, National Center for Advancing Translational Sciences (NCATS)
gsp antagonist = antagonizes gsp, the McCune-Albright syndrome mutation; actives 0.4% (n = 340,000); gsp-mutant cells, cAMP HTRF, 30 min; control for the full effect not named in the record; Potency, µM (highest dose often 76.9 µM), for the others: at the highest dose activity change, negative = inhibition, most hits filed as inhibitors; AID 624288; active = falling curve of any shape with a large fitted effect; inconclusive = falling curve, mostly with a smaller effect; inactive = flat or rising curve; cell line not stated here;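 also: intracellular cAMP measured with PDE inhibitor Ro 20-1724 present during compound exposure; potency is read from the fitted curve at half-maximal effect; % is scaled to controls: 0 for no effect and ±100 for the full control effect; nearly all actives have a fitted effect of over 65% in size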
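Cells in G418 medium, seeded 16-24 h, 37C; buffer exchange to DPBS + 1 mM CaCl2, 0.5 mM MgCl2, 0.05% BSA; cpds in DMSO + […] (300 uM stock), 30 min 37C; HTRF cAMP detection.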
Sfp PPTase inh = blocks B. subtilis Sfp PPTase activity; Q9F4F7; Biochemical Sfp PPTase activity, qHTS; Potency, µM, for inactives: max response, negative = inhibition, usual class: inhibitors; actives 3.5% (n = 310,000); active = well fitted inhibition curve with a large enough effect; inconclusive = small, poorly fitted or top-dose-only effect, or another doubt; inactive = no such curve, though single readings can be large or run the other way;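 also: the enzyme is Sfp with the accession as filed and its product quenches rhodamine fluorescence; potency is read from the fitted curve at half-maximal effect; 0% = enzyme reaction without inhibitor and -100% = no enzyme wells; top concentration of the series not given in the record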
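Sfp 15 nM + cpd, 15 min RT; start w/ rhodamine-CoA 5 uM, BHQ-2-YbbR 12.5 uM (final); 50 mM Hepes pH 7.6, 10 mM MgCl2, 0.01% NP-40, 0.01% BSA; read 525/598 nm at 0 and 30 min.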
ClpP mod = qHTS Assay for Activators of ClpP; ATP-dependent Clp protease proteolytic subunit (Bacillus subtilis (strain 168)), P80244; purified B. subtilis ClpP, FRET peptide cleavage, 20 min; Potency, µM (top dose mostly 57.5 µM), for inactives: top-dose activity change, negative = active; actives 1.9% (n = 340,000); active = well fitted falling curve with a large enough effect; inconclusive = small, poorly fitted or top-dose-only effect; inactive = no such curve, though single readings can be large or run the other way; also: potency is read from the fitted curve at half-maximal effect; the source files actives as falling curves though it sought activators and does not explain the sign; nearly all actives have a fitted effect of over 65% in size; many hits overshoot -100%
Target sequence (P80244 whole entry, looked up): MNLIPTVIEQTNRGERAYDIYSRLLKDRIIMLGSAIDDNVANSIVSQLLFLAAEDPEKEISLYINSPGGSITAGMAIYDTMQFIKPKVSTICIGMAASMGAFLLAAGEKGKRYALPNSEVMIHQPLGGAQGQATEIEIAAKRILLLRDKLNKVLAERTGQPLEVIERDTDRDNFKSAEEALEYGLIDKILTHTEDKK
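Buffer: 100 mM Tris/HCl pH8, 100 mM KCl, 0.05% low protease BSA, 2.5% glycerol, 0.01% Tween-20. ClpP 10 microg/mL final; 20 min RT; delta FRET normalized to ADEP and DMSO controls.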
TRPV1 potentiator = human TRPV1 potentiation; Q8NER1; TRPV1-expressing cells, Fluo-8 calcium influx, capsaicin EC20 potentiation; host cell line not named in the record; control for the full effect not named in the record; potentiation, % at 8.33 µM; actives 0.02% (n = 320,000); active means potentiation above 80%; inconclusive means 30% to 80%; inactive means below 30%; also: 0% is about no effect
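Cells expressing TRPV1 were dye-loaded with Fluo-8 and read kinetically: 10 s baseline, 3 min after compound (agonist portion), then 2 min after EC20 capsaicin (allosteric enhancer portion). Calcium-bound dye fluorescence at 480/520 nm.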
D2 potentiator = human D2 receptor positive allosteric modulation; DiscoveRx D2 beta-arrestin cells, luminescence, 90 min; 100% = 57 uM dopamine signal; actives 0.23% (n = 360,000); P14416; potentiation, % (no concentration beside the values); active = potentiation of 50% or more; inconclusive = 30% to 50%; inactive = 30% or less;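 also: compound concentration not given in the record; tested on top of an EC20 dose of dopamine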
Target sequence (P14416 whole entry, looked up): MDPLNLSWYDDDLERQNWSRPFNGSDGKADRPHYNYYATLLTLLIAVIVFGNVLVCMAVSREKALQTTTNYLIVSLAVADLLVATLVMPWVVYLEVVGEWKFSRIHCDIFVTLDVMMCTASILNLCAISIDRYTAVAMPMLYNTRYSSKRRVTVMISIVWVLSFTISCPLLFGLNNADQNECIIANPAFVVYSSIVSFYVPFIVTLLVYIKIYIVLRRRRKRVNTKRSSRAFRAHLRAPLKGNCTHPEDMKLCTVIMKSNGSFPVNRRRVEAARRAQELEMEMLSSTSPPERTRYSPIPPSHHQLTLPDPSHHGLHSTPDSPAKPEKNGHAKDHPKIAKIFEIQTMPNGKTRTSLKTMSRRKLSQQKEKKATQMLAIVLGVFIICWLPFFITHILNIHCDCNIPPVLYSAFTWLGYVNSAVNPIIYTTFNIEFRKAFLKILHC
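PathHunter D2 cells, attached overnight at 37 deg C, received compound in DMSO plus dopamine at EC20 (50 nM final) for 90 min at 37 deg C. Beta-arrestin recruitment was read as luminescence after 1 h with detection reagent at ambient temperature.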
Menin MLL FP FL = displaces fluorescein MLL peptide from human menin | FP activity change, % at 61.4 µM | Fluorescence polarization, fluorescein-MLL peptide displacement from menin | 290,000 tested, under 10 active; inconclusive = falling polarisation curve, or a change in total fluorescence; inactive = total fluorescence flat and polarisation flat or rising; no compound was filed as active; the % refers to the polarisation; negative = inhibition;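 also: % of control where 0% means no effect; inhibitors lower the polarisation; unlabelled MLL peptide was the positive control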
gsp agonist = gsp mutant agonism; actives 0.13% (n = 340,000); Potency, µM (highest dose often 76.9 µM), inactives show at the top dose activation (cAMP increase), most hits filed as activators; AID 624287; gsp mutant cells, cAMP HTRF, 30 min; control for the full effect not named in the record; active = well fitted activation curve with a large enough effect; inconclusive = small, poorly fitted or top-dose-only effect, or another doubt; inactive = no such curve, though single readings can be large or run the other way; cell line not stated here;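 also: phosphodiesterase inhibitor Ro 20-1724 added with compounds to block cAMP breakdown; potency is read from the fitted curve at half-maximal effect; nearly all actives have a fitted effect of over 60% in size; about a fifth of the inactives were tested at one dose only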
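Cells stably selected in G418 were plated at 2000/well, grown 16-24 hr, then given compounds in DMSO with the PDE inhibitor […] (300 uM solution added) for 30 min at 37C; cAMP was read by HTRF.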
An asterisk follows results filed as active; ? = inconclusive; / = no result given; & = joins results of further samples; [ ] = dose if it differs, or a comment.

SMILES	ClpP mod	gsp antagonist	gsp agonist	D2 potentiator	TRPV1 potentiator	Menin MLL FP FL	Sfp PPTase inh
O=C(O)c1ccc(N/N=C2/CCSc3ccc(F)cc32)cc1	/	-5%	24%	-8	26	-1.1	12%
CCOc1ccc(-n2nnnc2SCC(=O)Nc2ccc(NC(C)=O)cc2)cc1	1.6%	16%	1%	-6	-2	0.5	13%
O=c1cc(O)n(-c2ccc(F)cc2)c(=S)[nH]1	-2.0%	-13%	-13%	-1	?	3.1	?
O=C(CSc1nnc2ccccn12)NNC(=O)c1ccccc1	-14%	10%	-4%	-2	-3	-3.6	-7%
CC1CCc2nn(CC(=O)NC3CCCC3)cc2C1 (stereo unspecified)	1.2%	6%	-29%	0	/	5.3	-9%
CCOc1ccc(C(=S)N2CCOCC2)cc1	-3.9%	-3%[15.4 µM]	21%	-24	20	-1.1	-12%
CCCn1c(=O)c2ccccc2n2c(SCC(N)=O)nnc12	/	-3%	19%	-8	7	0.5	10%
COc1ccc(OC)c(/C=N/n2c(-c3n[nH]c4c3CCC4)n[nH]c2=S)c1	-0.7%	?	1%[15.4 µM]	-13	/	4.5	-7%
Cc1nc(-c2ccc(C(=O)NCCO)cc2)cs1	/	-5%	22%[15.4 µM]	-3	4	19	21%
COC(=O)C1CCN(C(=O)COC(=O)c2cc(-c3ccccc3)nc3ccc(OC)cc23)CC1	3.4%	-23%	13%	-8	-22	/	/
O=C(CSc1nnc(CNC(=O)c2cccs2)o1)Nc1ccc2c(c1)OCO2	-3.1%	-15%	5%	-7	1	1.4	15%
CCCCN(CC)CCCNC(=S)Nc1ccc2nc(N3CCN(C)CC3)cc(C)c2c1	/	4%	3%[15.4 µM]	-5	-5	1.0	4%
CCCCN(C(=O)C1CCN(C(=O)c2ccccc2C)CC1)c1c(N)n(CCC)c(=O)[nH]c1=O	-2.6%	8%	8%	1	22	/	/
COC(=O)c1ccccc1NS(=O)(=O)c1cn(C)c(=O)n(C)c1=O	6.0%	4%	-8%	-12	-20	1.0	12%
Cn1c(=O)c(NC2CCCCC2)c2c3c(cccc31)C(=O)c1ccccc1-2	/	?	-56%[inhibitor]	-1	15	?	-25%
COc1ccc(OC)c(CNC(=O)c2nn(C)c3c2CS(=O)(=O)c2ccccc2-3)c1	2.3%&2.3%	8%	?	-1	3	-14	12%
CCCN(CCC)S(=O)(=O)c1ccc(NC(=O)COc2ccccc2)cc1	1.6%	0%	11%	-7	8	3.1	16%
O=CNc1ccc2c(c1)Cc1cc([N+](=O)[O-])ccc1-2	-4.5%	-2%	21%[15.4 µM]	-8	/	/	/
Cc1ccc(C(=O)Nc2cccc(S(=O)(=O)N3CCOCC3)c2)cc1[N+](=O)[O-]	0.5%	-1%	25%	-12	-5	6.4	-4%
COCc1cc(C)nc(SCC(=O)Nc2cc3c(cc2C#N)OCO3)c1C#N	4.7%	9%	-3%	8	-1	-0.7	1%
COc1cccc(-c2ncc3ccccc3c2COC(=O)c2ccc(C(F)(F)F)cc2)c1	32%	1%	?	-15	7	/	/
O=C(NC1CCCCC1)N1CCN(c2ncccn2)CC1	1.4%	-3%	-32%[inhibitor]	-4	-7	6.1	17%
Cc1cccc(C(=O)NC(C(=O)Nc2ccc(S(=O)(=O)Nc3nccs3)cc2)C(C)C)c1 (stereo unspecified)	1.8%	3%	-18%	-8	/	/	/
Cc1cc(S(=O)(=O)N2CCCC2)ccc1OCC(=O)NCc1ccco1	0.1%	-6%	-30%[inhibitor]	-3	0	3.0	-26%
Cc1nnc(NC(=O)c2c(-c3ccccc3)noc2C)s1	1.1%	-10%	-29%	2	11	0.5	3%
Cn1c(SCC(=O)Nc2ccc(NC(=O)c3cccs3)cc2)nnc1-c1ccncc1	78%	-1%	20%	2	8	-2.9	19%
O=S(=O)(NC1CCc2ccccc21)c1ccc(S(=O)(=O)N2CCCC2)cc1 (stereo unspecified)	1.2%	4%	0%	-13	-16	1.0	7%
COc1ccc(CCC(=O)NCc2cn3ccc(C)cc3n2)cc1	4.6%	-4%	6%	-6	3	-1.2	-3%
CC(C)Oc1ccc(S(=O)(=O)N2CCOCC2)cc1NC(=O)Cc1ccsc1	-1.3%	-16%	14%[15.4 µM]	-11	/	/	/
O=C(NCCc1ccccc1F)C1CCC(=O)N(CCCN2CCCC2=O)C1 (stereo unspecified)	0.3%	-6%	?	2	-1	-1.3	19%
C#CC(C)(C)NC(=O)c1cnc(-c2ccccc2)nc1-c1ccccc1	-0.4%	-12%	5%	-4	-17	-2.4	8%
COc1ccc2c(c1)c(=O)c(C(=O)c1ccc(F)cc1)cn2CC(=O)Nc1ccc(F)cc1	5.0%	-2%	-20%	4	6	2.3	-1%
CC(=O)Nc1cc2c(cc1[N+](=O)[O-])-c1ccccc1C2O (stereo unspecified)	/	-7%	-8%	8	/	/	/
Cc1ccc(C(=O)NCCSC(C)(C)C)cc1	5.3%	6%	3%	-6	-19	5.5	7%
Cc1ccc(OCCC(=O)NNC(=O)c2ccc(Br)cc2)cc1	-0.2%	3%	13%[15.4 µM]	-6	/	/	/
O=[N+]([O-])c1cc([N+](=O)[O-])c2cccnc2c1O	/	/	/	/	27	?	40µM*
CCN(CC)c1ccc2ccc(=O)oc2c1	/	6%	18%[15.4 µM]	-2	10	1.5	2%
COCCNC(=S)N(CCO)Cc1cc2cc3c(cc2[nH]c1=O)OCCO3	3.7%	2%	4%	-2	?	-8.6	-15%
Cc1ccc2nc(/C=C/c3cccc(F)c3)ccc2c1	/	-8%	-22%	-4	-7	1.7	2%
O=C(Nc1ccc(Br)cn1)c1ccc2nccnc2c1	0.4%	-17%	-17%	2	/	/	/
CCCc1nnc(NC(=O)CCC(=O)NCc2ccccc2Cl)s1	-4.5%	3%	-1%	-8	4	/	11%
C/C(=N\N(c1ccccc1)c1ccccc1)c1ccc(O)cc1	/	-13%	-2%[15.4 µM]	-11	0	0.4	-1%
CC(C)(CNC(=O)c1ccccc1NS(C)(=O)=O)N1CCCCC1	-2.7%	5%	7%[15.4 µM]	-6	0	3.5	23%
Cc1csc(NC(=O)C2CCN(S(=O)(=O)c3ccccc3F)CC2)n1	/	-26%	-22%[15.4 µM]	4	-7	1.6	15%
CCCN(CCC)CCCNC(=O)C1CCN(S(=O)(=O)c2cccc3nsnc23)CC1	1.2%&1.7%	12%	-2%	-25	-2	-1.8	7%
O=C(Nc1ccc(S(=O)(=O)N2CCCC2)cc1)c1ccc([N+](=O)[O-])cc1	-0.4%	1%	1%[15.4 µM]	9	-35	-2.3	4%
Fc1cccc(CN2CCSCC2)c1	/	9%	?	0	8	-3.3	-18%
CCOC(=O)c1c(NC(=O)COC(=O)CNC(=O)c2ccc(Cl)cc2Cl)sc(C(=O)N(C)C)c1C	1.6%	-18%	-5%[15.4 µM]	-5	9	/	/
COc1ccc(-c2cc(-c3ccc(N)cc3)nc(N)c2C#N)cc1OC	/	/	7%[15.4 µM]	-14	7	4.3	4%
Clc1nc(-c2ccccn2)nc2scc(-c3ccccc3)c12	28µM*	-21%	6%	-10	24	-1.2	-14%
COc1ccc(CN(C)C(=O)Cc2c[nH]c3ccccc23)cc1	-1.1%	-2%	24%	2	10	-0.7	12%
COc1cccc2c(=O)n(CC(=O)N3CCCCCC3)ccc12	4.0%	-3%	22%	-3	5	4.2	28%
O=C(/C=C/c1cccs1)c1ccc(NC(=O)c2ccccc2F)cc1	0.5%	-14%	8%	-8	18	-1.6	-8%
CCOC(=O)C1CCCNC1=O (stereo unspecified)	-0.4%	11%	24%[15.4 µM]	-7	/	-0.1	13%
CN(CC(=O)Nc1cccc(F)c1)C(=O)c1csc2c1CCCC2	2.4%	-5%	-3%	-20	-5	/	/
O=C(COc1ccc(S(=O)(=O)N2CCCCC2)cc1)NC1CCCCC1	-2.1%	-1%	2%	-3	/	1.3	3%
CCNC(=O)c1cc(Br)ccc1Cl	-2.9%	16%	12%	22	3	-0.8	9%
O=C(NCc1ccccc1)C1=C[C@H](c2ccc(C(F)(F)F)cc2)C[C@H](OCc2ccc(CO)cc2)O1	0.5%	-14%	/	-7	2	-2.2	15%
O=C1CN(C(=O)CSc2nc(-c3ccc(Cl)cc3)cs2)c2ccccc2N1	1.0%	-31%	-70%[inhibitor]	-7	13	10	12%
CCOC(=O)C1(CCc2ccccc2)CCN(C(=O)CCc2cnccn2)CC1	/	1%	-15%	-3	-19	-0.7	6%

(next part)
SMILES	ClpP mod	gsp antagonist	gsp agonist	D2 potentiator	TRPV1 potentiator	Menin MLL FP FL	Sfp PPTase inh
Cc1ccc(NC(=O)Cc2c(Cl)cccc2Cl)cc1S(=O)(=O)N(C)C	0.7%	?	5%	-2	4	2.2	20%
O=C(Nc1ccc([N+](=O)[O-])cc1)c1ccc(Cn2cc([N+](=O)[O-])cn2)cc1	0.0%	-17%	1%	-12	-21	3.2	-16%
Nn1c(SCc2ccc([N+](=O)[O-])cc2)nc2ccccc2c1=O	-9.8%	-3%	-27%	-11	12	-1.2	-23%
Cc1ccc(C(=O)OCC(=O)Nc2nc(-c3ccccc3)cs2)cc1NC(=O)c1ccco1	-3.3%	-9%	-2%[15.4 µM]	3	12	0.1	28%
COc1ccc(OC)c(NC(=O)C2CCN(Cc3cnn(-c4ccccc4)c3-n3cccc3)CC2)c1	0.0%	5%	2%	-2	2	4.4	8%
O=C(COC(=O)/C=C/c1ccc(OC(F)F)cc1)Nc1ccc2[nH]c(=O)[nH]c2c1	2.2%	4%	-3%[15.4 µM]	-15	/	/	/
CCOC(Cn1ccc(=O)[nH]c1=O)OCC	1.5%	12%	7%	-5	25	2.0	16%
COc1ccc(C(=O)Nc2cccc(-c3cnc4ccccc4n3)c2)cc1	-2.6%	-2%	25%	1	27	4.8	-2%
CCCN1CN=C(Nc2nc3ccccc3o2)NC1	/	13%	23%[15.4 µM]	-9	-4	3.9	2%
